YopH PTP inh: blocks Yersinia enterocolitica YopH tyrosine phosphatase. fluorescence Ex485/Em525. inhibition, %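 (about 10 µM by stock and volumes)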. 140,000 compounds, 0.16% hits. AID 898;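 active = inhibition of 50% or more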;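 note: controls were vehicle for no effect and minimum signal wells for full effect; inactives centre near -20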
Mtb betalactam: beta-lactam sensitization of Mtb H37Rv. M. tuberculosis H37Rv growth with meropenem, percent inhibition; hits of this screen are not shown here. inhibition, % at 25 µM. 330,000 compounds, 0.27% hits;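 active = about 74% or more and at least 40 points above the plate without the antibiotic, then above 30% in a dose series; inconclusive = first-round hits that could not be retested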;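 note: growth measured after seven days incubation then overnight dye step; 0% = bacteria only wells and 100% = bacteria with antibiotic; twin plates without the antibiotic show which effects depend on it; some results filed as inactive read as strong as hits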
RecA splice inh: blocks M. tuberculosis RecA intein splicing; P9WHJ3; cell-free RecA intein splicing, fluorescence; inhibition, %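 (about 9 µM by stock and volumes)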; 290,000 compounds, 0.75% hits; in the data active = inhibition above about 30%; inconclusive = no clear call, values can overlap the other calls;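 note: 0% = vehicle wells and 100% = reference inhibitor control wells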
Target sequence (P9WHJ3 whole entry, looked up, canonical isoform): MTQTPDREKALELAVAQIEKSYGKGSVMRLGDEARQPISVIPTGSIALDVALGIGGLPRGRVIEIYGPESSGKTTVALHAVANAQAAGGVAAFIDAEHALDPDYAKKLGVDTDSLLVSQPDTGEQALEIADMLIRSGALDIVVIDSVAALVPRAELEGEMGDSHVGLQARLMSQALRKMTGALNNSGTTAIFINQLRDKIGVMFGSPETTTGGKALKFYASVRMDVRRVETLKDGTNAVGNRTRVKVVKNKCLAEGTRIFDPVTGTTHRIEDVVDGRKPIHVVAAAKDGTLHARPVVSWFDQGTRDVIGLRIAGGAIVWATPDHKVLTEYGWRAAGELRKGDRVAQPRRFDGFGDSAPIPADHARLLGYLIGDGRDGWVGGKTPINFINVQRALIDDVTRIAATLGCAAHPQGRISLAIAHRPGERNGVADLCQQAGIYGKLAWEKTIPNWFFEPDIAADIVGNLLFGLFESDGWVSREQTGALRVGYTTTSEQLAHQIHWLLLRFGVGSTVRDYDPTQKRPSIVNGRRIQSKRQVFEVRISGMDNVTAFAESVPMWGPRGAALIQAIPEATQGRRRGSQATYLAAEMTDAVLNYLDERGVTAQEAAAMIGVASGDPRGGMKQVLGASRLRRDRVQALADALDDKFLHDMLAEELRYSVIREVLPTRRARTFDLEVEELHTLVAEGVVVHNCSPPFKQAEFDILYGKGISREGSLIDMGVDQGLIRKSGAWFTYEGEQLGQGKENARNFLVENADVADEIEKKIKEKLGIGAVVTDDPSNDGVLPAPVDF
Mtb H37Rv: M. tuberculosis H37Rv growth inhibitors, H37Rv strain (AID 1626) | M. tuberculosis H37Rv growth inhibition; higher % means a stronger effect | one-dose inhibition, % at 10 µM; IC50 in µM for titrated hits | 220,000 compounds, 0.95% hits;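 active = confirmed in a dose series; inconclusive = inhibition above 80% but not taken into the dose series; inactive = below 80% or under 30% at every dose of the series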;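 note: bacteria incubated seven days before Alamar blue readout; 0% = bacteria only wells and 100% = bacteria with antibiotic wells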
Arbovirus anti: antivirals against arbovirus infection | arbovirus infection cell-based antiviral screen | inhibition, % at 10 µM | 200,000 compounds, 0.37% hits;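 active = inhibition from about 30%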;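 note: bluetongue infection of BSR cells; cell survival read as ATP light after 72 h; 0% = infected wells without compound and 100% = uninfected wells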
Arbovirus anti repeat: also measured in Arbovirus anti; calls as there; inhibition, %; measured here: 10K subset replicate screen; many hits read low in the repeat;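 first of two repeat runs on a subset; 0% = infected and 100% = uninfected wells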
Numbers without * were called inactive; ? = inconclusive; · = not tested or not shown. A portion of the library, so the mix of outcomes need not match the whole.

Sample of the layout:
SMILES	YopH PTP inh	Mtb betalactam	RecA splice inh	Mtb H37Rv	Arbovirus anti	others
CCC(=O)N1CCc2cc(S(=O)(=O)CCC(=O)NCc3cccs3)ccc21	-52	-4	2.0	-7%	-3
CCCS(=O)(=O)N1CCc2ccc(NC(=O)c3ccccc3Cl)cc2C1	·	2	-0.3	·	·

The listing (from the top)
SMILES	YopH PTP inh	Mtb betalactam	RecA splice inh	Mtb H37Rv	Arbovirus anti	others
CCC(=O)N1CCc2cc(S(=O)(=O)CCC(=O)NCc3cccs3)ccc21	-52	-4	2.0	-7%	-3
CCCS(=O)(=O)N1CCc2ccc(NC(=O)c3ccccc3Cl)cc2C1	·	2	-0.3	·	·
COC(=O)C1(C(=O)OC)NOC2C(=O)N(N(C)c3ncc(C(F)(F)F)cc3Cl)C(=O)C21 (stereo not given)	·	-5	-3.6	-8%	12
COC(CC(=O)NNC(=S)Nc1ccc(Cl)cc1)OC	·	-9	-2.8	4%	15
CS(=O)(=O)NCCNc1ccc(Cl)cc1[N+](=O)[O-]	·	7	-2.4	4%	11
O=c1c(Br)c(N2CCCCC2)cnn1-c1ccccc1	·	-5	-1.2	3%	-17
COc1ccccc1C(=O)C1CCCN(C(=O)c2cccc(Cn3cccn3)c2)C1 (stereo not given)	·	-1	2.9	·	·
N/C(=N\OC(=O)c1ccc(Cl)cc1[N+](=O)[O-])c1ccccn1	·	-2	-2.1	·	·
Cn1c(=O)c([N+](=O)[O-])c(NCc2ccc3c(c2)OCO3)c2ccccc21	·	3	-3.0	2%	·
NC(=O)CN1C(=O)C(O)(CC(=O)/C=C\c2ccc3c(c2)OCO3)c2ccccc21 (stereo not given)	·	2	5.9	-15%	-5
COc1ccc(CC(=O)Nc2ccc(S(=O)(=O)Nc3cc(OC)nc(OC)n3)cc2)cc1	·	8	-2.7	·	·
O=C(c1ccc(N2CCN(CCO)CC2)nc1)N1CCOCC1	-22	2	37*	1%	5
CN(C)c1ccc(C2CC(=O)NC3=C2C(=O)CC(C)(C)C3)cc1 (stereo not given)	-28	13	·	-6%	-1
CCCCN(CCCC)C(=O)c1cc(Cl)ccc1[N+](=O)[O-]	-34	-7	-0.8	11%	0
COc1cc(-c2n[nH]c(=S)n2Cc2ccccc2)cc(OC)c1OC	·	2	-0.3	·	·
COc1ccc(C(=N/O)/C(=N/O)c2ccc(OC)cc2)cc1	-53	11	2.7	-1%	-4
COc1cccc(CNC(=O)C2CCCN(S(C)(=O)=O)C2)c1 (stereo not given)	-42	-2	1.3	2%	4
Cc1ccc(-n2c(O)c(/C=N/N3CCCCCC3)c(=O)[nH]c2=O)cc1C	·	0	·	-2%	·
COc1cccc(C(c2sc3ncnn3c2O)N2CCc3ccccc3C2)c1 (stereo not given)	1	-5	1.1	2%	9	Arbovirus anti repeat=8
CC(=O)Nc1ccc(NC(=S)NC(=O)c2cc3ccccc3o2)cc1	-26	-2	0.3	1%	-5
O=C(Nc1ccc(Oc2cccc(C(F)(F)F)c2)nc1)c1ccccc1	·	22	-1.8	4%	·
CCOc1ccc(N(C)S(=O)(=O)c2cc(-c3cc(C)no3)ccc2OC)cc1	·	26	5.1	·	·
Cc1cc(SCC(=O)N(C)C2CCS(=O)(=O)C2)nc2c(C)cccc12 (stereo not given)	·	-3	·	4%	-1
C/C(CC(=O)Nc1ccccc1Br)=N\NC(=O)C(=O)N1CCCC1	-7	?	·	1%	1
O=C(Nc1nc2c(s1)CCc1ccccc1-2)c1ccco1	-10	12	1.6	8%	-6
SMILES	YopH PTP inh	Mtb betalactam	RecA splice inh	Mtb H37Rv	Arbovirus anti	others
Cc1nc2ccc(S(=O)(=O)NCC(=O)N3CCC(C)CC3)cc2s1	-53	-2	0.5	-10%	-4
COC(=O)C1=C(C)N(Cc2ccccc2)C(=O)/C1=C\c1ccco1	·	-7	-2.5	9%	·
O=[N+]([O-])c1cccc(CN2C[C@@]34C=C[C@@H](C[C@@H]3S2(=O)=O)O4)c1	·	-3	-1.7	·	·
O=C(c1cc(-c2cccc(Cl)c2)nc2ccccc12)N1CCN(c2ccccn2)CC1	·	82	14	·	·
OC(COCC1COc2ccccc2O1)CN1CCCCC1 (stereo not given)	-7	4	0.3	10%	4
Cc1cccc(CN2CCN(CC(=O)O)C2=O)c1	-55	·	0.8	-1%	-5
C=CCNC(=O)C1CCN(S(=O)(=O)c2cccs2)CC1	·	-16	-3.5	·	·
O=C(N/N=C/c1ccco1)c1cccc(NC(=O)c2cccc(Cl)c2)c1	·	-7	0.6	·	·
Cc1ccc2c(CN(C)Cc3ccc(OC(F)F)cc3)cc(=O)oc2c1C	·	6	13	·	·
Cc1nn(CC(=O)N2CCCC2)c(=O)c2cc3cc(F)ccc3n12	·	3	-2.0	·	·
CCN(CC(=O)Nc1ccc(NC(C)=O)cc1)C(=O)/C=C/c1cn(-c2ccccc2)nc1-c1ccc(C)cc1	·	94	-1.0	·	·
Cc1cc(C(=O)CN2C(=O)C(=O)N(C3CCCC3)C2=O)c(C)n1-c1ccc(F)cc1	·	-5	4.7	-8%	-6
CS(=O)(=O)N(CC(=O)NCc1ccc2c(c1)OCO2)c1ccccc1	-49	?	-3.0	-7%	3
O=C(COC(=O)/C=C/c1ccco1)Nc1ccccc1	·	73	0.2	14%	12
Cc1onc(-c2c(Cl)cccc2Cl)c1C(=O)NC(=S)N1CCOCC1	·	43	1.5	32%	·
CCC(C(=O)OCCN(CC)CC)c1ccccc1 (stereo not given)	-48	4	-0.9	-5%	3
Cc1ccc(C2(c3ccc(C)cc3)CC2C(=O)NCc2cccnc2)cc1 (stereo not given)	·	5	-2.0	4%	9
S=c1[nH]nc(-c2ccncc2)n1/N=C/C=C/c1ccccc1	·	-7	1.1	2%	·
O=C(N/N=C1\CCCc2ccccc21)c1ccc([N+](=O)[O-])cc1Cl	-7	-6	0.1	6%	3
Fc1ccc(CCNCc2ccc(Cl)c(Cl)c2)cc1	-16	-2	2.4	7%	-3
Cc1ccc(CNC(=O)CCNS(=O)(=O)c2cccc3nsnc23)cc1	·	5	1.6	·	·
CCN1CCN(C(=S)Nc2cccc(Cl)c2)CC1	·	-7	6.8	5%	2
CCCc1cc(=O)oc2cc(C)c3c(C)coc3c12	8	4	-3.0	-1%	-3
CC(C)NCc1nnc(-c2ccccc2Cl)o1	·	-3	-6.2	·	9
CCOc1ccc(NC(=O)CSc2nnc(COc3c(C)cccc3C)o2)cc1	-35	3	0.7	-13%	6	Arbovirus anti repeat=4
SMILES	YopH PTP inh	Mtb betalactam	RecA splice inh	Mtb H37Rv	Arbovirus anti	others
COc1cc(O)c(C(C)=O)cc1OC	-23	-6	-4.0	2%	4
CCN(CC)S(=O)(=O)c1cccc(-c2nnc(SCCOc3ccccc3C)o2)c1	-1	-4	1.2	3%	-4
O=C(NCc1ccco1)C1CC(=O)N(c2cccc(Cl)c2)C1 (stereo not given)	·	4	1.3	·	·
CCCCN(CC)CCCNC(=O)c1ccc(CS(=O)(=O)c2ccccc2C)o1	·	0	-1.0	·	·
O=C(c1cccc(NC2=NC3CS(=O)(=O)CC3S2)c1)N1CCN(c2ncccn2)CC1 (stereo not given)	·	6	-4.9	·	·
COc1ccc(/C(N)=N/OC(=O)c2ccco2)cc1	·	-1	1.9	-5%	5
CCOC(=O)C1=C(C)N(C)C(=S)NC1c1ccccc1Cl (stereo not given)	-3	-3	0.8	-4%	5
C=CCOc1ccccc1CN1CCC(Oc2ccc(C(=O)N3CCCCC3)cc2)CC1	·	?	2.4	·	·
O=C(O)Cn1c(-c2ccccc2)cc2ccccc21	·	0	2.5	·	·
Cc1cccc2cc(CN(CC3CCCO3)C(=O)c3cnccn3)c(=O)[nH]c12 (stereo not given)	-21	·	-1.9	-9%	0
CCSc1nsc(SCC)c1C(N)=O	-39	-8	2.1	-10%	-5	Arbovirus anti repeat=-1
O=C1/C(=C\c2ccco2)SC(=S)N1C1CCS(=O)(=O)C1 (stereo not given)	·	5	-2.4	4%	·
CCOC(=O)c1c(NC(=O)CCS(=O)(=O)c2ccccc2)sc2c1CC(C)(C)NC2(C)C	·	?	3.2	·	·
CCS(=O)(=O)N1Cc2ccccc2CC1C(=O)Nc1nnc(SCc2ccc(F)cc2)s1 (stereo not given)	12	-4	8.6	?	-7
Cc1ccc(C)n1-c1sc2c(c1C#N)CCC(C)C2 (stereo not given)	-9	1	-0.5	·	0
C/C(=N/NC(=O)c1ccoc1C)c1cccc(NC(=O)C2CC2)c1	-10	1	0.5	3%	-11
COC(=O)c1c(-n2cnnn2)sc(C)c1C	-15	3	2.3	-7%	8
O=C(CC1(O)C(=O)N(CCc2ccccc2)c2ccccc21)c1ccco1 (stereo not given)	-9	14	2.0	-10%	-2
O=C(CSc1n[nH]c(-c2ccncc2)n1)Nc1ccccc1Cl	·	-13	-0.6	·	·
O=Cc1cc([N+](=O)[O-])ccc1N1CCOCC1	-22	8	-4.1	-2%	5
COc1ccccc1C(=O)NNC(=O)c1csc(N2CCOCC2)n1	·	6	0.2	·	·
c1ccc2sc(C3CCCNC3)nc2c1 (stereo not given)	-14	-1	-2.7	-13%	4	Arbovirus anti repeat=1
COC(=O)[C@@H](Cc1c[nH]c2ccccc12)NC(=O)CCC(=O)c1ccc(Br)cc1	·	43	4.0	·	·
O=C(NNC(=O)c1ccccc1-c1ccccc1C(=O)O)c1cccc([N+](=O)[O-])c1	2	4	1.0	-6%	6
CC(C)C(=O)Nc1ncc2c(n1)CC(c1cccs1)CC2=O (stereo not given)	-31	-4	0.6	-9%	-5
SMILES	YopH PTP inh	Mtb betalactam	RecA splice inh	Mtb H37Rv	Arbovirus anti	others
Nc1nc(C(=O)N2CCOCC2)nn1S(=O)(=O)c1ccc(Cl)cc1	-5	-1	0.1	-14%	14
O=C(CCCNS(=O)(=O)c1cccs1)N1CCc2ccccc2C1	18	-4	8.1	-9%	3
O=C(OCc1cccc(F)c1)c1ccc2c(=O)n3c(nc2c1)CCC3	·	97	-6.5	?	·
COc1ccc(C2(CNC(=O)c3ccc(Br)o3)CCOCC2)cc1	-17	-1	3.4	-16%	4
CCCCN1C(=O)/C(=C2\SC(N3CCOCC3)=NC2=O)c2ccccc21	·	1	4.4	·	·
COc1ccc2oc(=N)c(C(=O)Nc3ccc(C)cc3)cc2c1	·	8	-0.1	·	·
NC(=O)N1N=C2/C(=C/c3ccccc3)CCCC2C1c1ccccc1 (stereo not given)	·	5	0.9	·	·
Cc1ccc(S(=O)(=O)c2nnn3c2nc(N2CCN(c4ccccn4)CC2)c2ccccc23)cc1C	·	2	-0.5	·	·
COc1ccc(S(=O)(=O)N/N=C(/C)c2ccco2)cc1	·	-5	-0.8	·	·
CCSc1nnc(-c2cccs2)o1	24	1	0.0	15%	0
C/C=C/C(=O)Nc1cccc(C2=NOC3(C2)C[C@@H](C(N)=O)N(C(=O)C(c2ccccc2)c2ccccc2)C3)c1 (stereo not given in full)	·	10	4.5	2%	·
CCOC(=O)c1ccc(-n2c(O)c(/C=N/NC(=O)C3COc4ccccc4O3)c3ccccc3c2=O)cc1 (stereo not given)	-17	11	16	9%	-23
O=c1c2ccccc2c(-c2ccccc2)nn1Cc1c(Cl)cccc1Cl	-41	15	3.5	10%	-7
OC(COCc1cccs1)CN1CCN(c2cccc(C(F)(F)F)c2)CC1 (stereo not given)	14	0	0.0	12%	-14
CCNc1nc(ON=C(C)C)nc(N(C)C)n1	-35	-1	2.8	0%	2
CC1CCN(S(=O)(=O)c2ccc([N+](=O)[O-])cc2)CC1	·	-1	-5.2	·	·
COc1ccc(-c2nc3ccccc3c(=O)n2O)cc1	·	69	-0.7	·	·
CCOc1ccc(S(=O)(=O)N2CCC(C(=O)NCC3CCCO3)CC2)cc1 (stereo not given)	·	-14	-1.6	·	·
CC(=O)O[C@H]1CC[C@]2(C)[C@H]3CC=C4[C@@H]5[C@@H](C)[C@H](C)CC[C@]5(C(=O)O)CC[C@@]4(C)[C@]3(C)CC[C@H]2C1(C)C	·	-14	4.3	-3%	·
COc1ccc2c(c1)C=C([C@@H]1C[C@H]3CN(c4ccccc4)C(=O)[C@]34CCCN14)CO2	·	-2	0.4	3%	1
O=C(CCC(=O)NC1CCCCC1)N/N=C/c1ccncc1	·	-1	-0.1	3%	2

Random excerpt: four compounds from above, in no set order.
SMILES	YopH PTP inh	Mtb betalactam	RecA splice inh	Mtb H37Rv	Arbovirus anti	others
CC(=O)O[C@H]1CC[C@]2(C)[C@H]3CC=C4[C@@H]5[C@@H](C)[C@H](C)CC[C@]5(C(=O)O)CC[C@@]4(C)[C@]3(C)CC[C@H]2C1(C)C	·	-14	4.3	-3%	·
O=C(CCCNS(=O)(=O)c1cccs1)N1CCc2ccccc2C1	18	-4	8.1	-9%	3
CC1CCN(S(=O)(=O)c2ccc([N+](=O)[O-])cc2)CC1	·	-1	-5.2	·	·
O=C(CCC(=O)NC1CCCCC1)N/N=C/c1ccncc1	·	-1	-0.1	3%	2

High-throughput results deposited in PubChem BioAssay by several laboratories.
